Cruzain Triton – qHTS Assay for Promiscuous and Specific Inhibitors of Cruzain (with detergent). Cruzipain (Trypanosoma cruzi), P25779. purified cruzain, Z-FR-AMC fluorescence, 0.01% Triton. Potency, µM, inactives show max response, negative = inhibition, most hits filed as inhibitors. 200,000 compounds, 0.43% hits;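 further: plate controls were neutral wells for no effect and buffer without enzyme for full effect; nearly all actives have a fitted effect of over 40% in size; top concentration of the series not given in the record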
Target sequence (P25779 123-467 limits assumed): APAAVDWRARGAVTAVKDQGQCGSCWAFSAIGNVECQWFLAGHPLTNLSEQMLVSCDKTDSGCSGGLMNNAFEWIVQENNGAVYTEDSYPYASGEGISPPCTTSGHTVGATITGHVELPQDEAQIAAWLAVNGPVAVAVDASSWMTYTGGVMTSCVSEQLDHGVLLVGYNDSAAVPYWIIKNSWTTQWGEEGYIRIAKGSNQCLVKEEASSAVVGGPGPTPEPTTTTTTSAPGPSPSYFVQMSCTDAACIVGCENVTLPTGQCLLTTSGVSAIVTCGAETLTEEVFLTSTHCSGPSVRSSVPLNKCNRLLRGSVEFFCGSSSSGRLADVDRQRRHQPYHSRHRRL
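Detergent-containing arm of a paired screen for aggregation-based inhibition: 0.01% Triton X-100 present. Cruzain at 1.5 nM cleaved 2 uM Z-FR-AMC at pH 5.5 with 5 mM DTT; AMC fluorescence gain over 60 s measured activity.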
Cruzain inh noDet – qHTS Assay for Promiscuous and Specific Inhibitors of Cruzain (without detergent); 200,000 compounds, 2.3% hits; Potency, µM, for inactives: max response, negative = inhibition, actives largely listed as inhibitors; Cruzipain (Trypanosoma cruzi), P25779; purified cruzain, Z-FR-AMC fluorescence, no detergent; AID 1476, 2009;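 further: plate controls were enzyme without inhibitor for no effect and buffer without enzyme for full effect; nearly all actives have a fitted effect of over 40% in size; top concentration of the series not given in the record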
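Purified cruzain at 1.5 nM, pre-incubated 15 min with compound at room temperature in 100 mM sodium acetate pH 5.5, 5 mM DTT, 0.00005% Triton X-100. Reaction started with 2 uM Z-FR-AMC; AMC fluorescence increase over 60 s gives rate.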
SARS PLpro yeast – qHTS of Yeast-based Assay for SARS-CoV PLP; 330,000 compounds, 0.19% hits; S. cerevisiae expressing SARS-CoV PLpro, growth rescue; control for the full effect not named in the record; Potency, µM (titrated, usually from 32.9 µM), inactives show at the highest dose activity, positive = growth rescue; active means well fitted rising curve with a large enough effect; inconclusive means small, poorly fitted or top-dose-only effect; inactive means no such curve, though single readings can be large or run the other way; further: 0% is about no effect; nearly all actives have a fitted effect of over 55% in size; growth read by luminescence after 48 h
RE007 growth inh – qHTS Assay for Inhibitors of the HIV-1 protein Vpr; S. pombe RE007 Vpr strain, BacTiter-Glo ATP luminescence, 24 h; control for the full effect not named in the record; Potency, µM (doses to about 92.2 µM), inactives show at the highest dose activity change, negative = less growth; 360,000 compounds, 0.21% hits; AID 651644, 2012; active = well fitted falling curve with a large enough effect; inconclusive = small, poorly fitted or top-dose-only effect; inactive = no such curve, though single readings can be large or run the other way;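 further: on the % scale 0 is the no-effect control and ±100 the full control effect; nearly all actives have a fitted effect of over 50% in size; the assay follows cell death caused by Vpr and the record does not say whether a fall means rescue or toxicity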
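Fission yeast RE007 carrying one integrated HIV-1 vpr copy, seeded at OD 0.01 in PMG+AL medium with 23 nL pinned compound. Grown 24 h at 30 degrees; viability read by BacTiter-Glo luminescence after 5 min.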
NS1 function inh – qHTS Assay for Inhibitors of Influenza NS1 Protein Function; S. cerevisiae slowed by influenza A NS1, growth recovery by OD600; Potency, µM (series often up to 46.1 µM), for inactives: at the top dose activity, positive = more growth; 270,000 compounds, 0.4% hits; AID 2326, 2010; active means well fitted rising curve with a large enough effect; inconclusive means small, poorly fitted or top-dose-only effect; inactive means no such curve, though single readings can be large or run the other way; further: nearly all actives have a fitted effect of over 50% in size
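A cell-based growth assay was used: compounds that relieve NS1-induced slow growth of budding yeast raise OD600. Assay medium was yeast nitrogen base with ammonium sulphate and -URA supplement, pH 6.0, with 2% galactose.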
LASV entry inh – qHTS for Inhibitors of binding or entry into cells for Lassa Virus; Potency, µM (doses to about 37.9 µM), without a hit: at the highest dose activity change, negative = inhibition, hits mostly inhibitors; 300,000 compounds, 1.2% hits; Lassa virus pseudotype entry inhibition, cell reporter; control for the full effect not named in the record; AID 540256, 2011; active means well fitted inhibition curve with a large enough effect; inconclusive means small, poorly fitted or top-dose-only effect, or effect the other way; inactive means flat fitted curve, though single readings scatter; tested in HEK293 cells; further: on the % scale 0 is the no-effect control and ±100 the full control effect; nearly all actives have a fitted effect of over 50% in size; luciferase read-out
Marburg entry inh – qHTS for inhibitors of binding or entry into cells for Marburg Virus | Marburg virus pseudotyped entry inhibition, cell reporter; control for the full effect not named in the record; about a third of the inactives were read at about 46 µM | Potency, µM (top dose mostly 37.8 µM), for the others: top-dose activity change, negative = inhibition, hits mostly inhibitors | 300,000 compounds, 1.8% hits | AID 540276, 2011; active = well fitted inhibition curve with a large enough effect; inconclusive = small, poorly fitted or top-dose-only effect, or effect the other way; inactive = flat fitted curve, though single readings scatter; tested in HEK293 cells; about a fifth of its hits are not listed in these tables; further: on the % scale 0 is the no-effect control and ±100 the full control effect; luciferase read-out
2A StopGo – High Throughput Screening for Foot and Mouth Disease Virus Antivirals; human cells with a luciferase reporter of 2A StopGo recoding; control for the full effect not named in the record; Potency, µM (series often up to 57.9 µM), inactives show top-dose signal change, negative = less light; 410,000 compounds, 1.2% hits; AID 1159524, 2015; active = well fitted falling curve with a large enough effect; inconclusive = small, poorly fitted or top-dose-only effect; inactive = no such curve, though single readings can be large or run the other way; tested in HEK293T cells; further: on the % scale 0 is the no-effect control and ±100 the full control effect; nearly all actives have a fitted effect of over 45% in size; luciferase light after 4 h
Active calls of the source: *; ? = inconclusive; nt = not tested or not shown; & = joins results of further samples; [ ] = dose if it differs, or a comment. Unless noted, the call rests on the fitted dose curve; in most records, active means well fitted curve in the direction sought with a large enough effect; inconclusive means small, poorly fitted or top-dose-only effect, or another doubt; inactive means no such curve, though single readings can be large; an effect the other way counts as inactive or inconclusive. Potency means the concentration at half of the fitted maximal effect.

SMILES | Cruzain Triton | Cruzain inh noDet | SARS PLpro yeast | RE007 growth inh | NS1 function inh | LASV entry inh | Marburg entry inh | 2A StopGo
Cc1nn(CC(=O)NCc2ccco2)c(=O)c2nn(-c3ccccc3)c(C)c12 | -1.2% | -3% | nt | nt | nt | 11%[46.1 µM] | nt | -30%
CCCCCNC1=CC(=O)CC(c2ccccc2)C1 (stereo not given) | 0.7% | 4% | -3% | -5% | ? | -22% | -22% | 0%
CC(=O)c1ccc(N2CCN(CC(=O)Nc3cc(C)on3)CC2)cc1 | nt | nt | 0% | -2% | 6% | 31%[46.1 µM] | 5%[46.1 µM] | 0%
O=C(O)c1sccc1Oc1ccc(F)cc1[N+](=O)[O-] | -2.7% | ? | 12% | -17% | -1% | -3% | -63% | -6%
COc1ccc(-n2ncc3c(NCc4ccc5c(c4)OCO5)ncnc32)cc1 | -9.2% | ? | 4% | 16% | 5% | 4% | -1% | 56%[activator]
Cc1cc(=O)n2cc(-c3ccccc3)nc2[nH]1 | 2.6% | ? | -1% | 1%[3.69 µM] | 0% | -13% | 7% | -6%
C/C(=N\NC(=O)CCc1c[nH]c2ccccc12)c1ccc([N+](=O)[O-])cc1 | -13% | -15% | -8% | 5% | 16% | ? | ? | ?
C=C1C(=O)O[C@@H]2C[C@@H](C)[C@H]3C=CC(=O)[C@]3(O)C[C@@H]12 | nt | nt | 2% | 2% | 14% | nt | nt | ?
CCOc1ccc(OCC)c(NC(=O)CSCCc2ccccn2)c1 | nt | nt | -8% | -15% | nt | 3%[46.1 µM] | -22%[46.1 µM] | -8%
CNC(=O)c1cc2c(s1)CCCCCC2 | -4.7% | 5% | -12% | -7% | -35% | -18% | 4% | -4%
CCN(Cc1ccccc1)S(=O)(=O)c1ccc(OC)cc1 | nt | nt | -4% | -4% | -19% | nt | nt | -8%
CCOC(=O)c1ccc(NC(=O)CCc2c(C)nc3ncnn3c2C)cc1 | 1.7% | -4% | 10% | -6% | -1% | -6% | 10% | -4%
COC(=O)c1ccc(Nc2ccc3nonc3c2[N+](=O)[O-])cc1 | nt | nt | 2% | 7% | 0% | 2% | -5% | -22%
CCOc1ccccc1N1CCN(C(=O)NC(C)c2ccc(F)c(F)c2)CC1 (stereo not given) | nt | nt | -2% | 10% | -4% | -15% | -12% | -11%
CCCc1nnc(NC(=O)CN2C(=O)C3C4C=CC(C4)C3C2=O)s1 (stereo not given) | 1.2% | -5% | 1% | 7% | 4% | 9% | 13% | 12%
CCOC(=O)c1c(S(=O)(=O)N2c3ccccc3CC2C)c(C)n(C)c1C (stereo not given) | nt | nt | -4% | -3% | 3% | nt | nt | 10%
NS(=O)(=O)c1ccc(CCNC(=O)c2cnc(Cl)c(Cl)c2)cc1 | nt | nt | 5% | -2% | 5% | 5%[46.1 µM] | 20%[46.1 µM] | -22%
CC(C)[C@H](NC(=O)N1CC(=O)Nc2ccccc21)C(=O)N[C@H](C(=O)O)c1ccccc1 | nt | nt | 1% | 4% | -8% | nt | nt | 15%
CCc1ccc(-c2cc(C)no2)cc1S(=O)(=O)N1CCN(c2cccc(Cl)c2)CC1 | -3.0% | 25µM* | nt | nt | nt | -23%[46.1 µM] | nt | -6%
O=C(CSc1nnnn1-c1cccc2c1CCCC2)N1CCCCC1 | -6.1% | -25% | 11% | 1% | -4% | ? | -19% | -9%
CC(C)Cc1nnc(NC(=O)CCC(=O)NC2CC2)s1 | nt | nt | 15% | 23% | 8% | nt | nt | -10%
COc1ccc(NC(=S)N(CCc2c(C)[nH]c3ccc(C)cc23)Cc2cccnc2)cc1 | -5.8% | 15% | -4% | 5% | -15% | -20% | -37% | 6%
CC(C)C(=O)Nc1nnc(S(=O)(=O)N2CCc3ccccc32)s1 | -2.0% | -1% | 11% | 11% | -31% | 20%[46.1 µM] | nt | -1%&-4%
Cc1cccc(NC(=O)Nc2cccc(Oc3c(F)c(F)c(F)c(F)c3F)c2)c1 | -7.8% | -1% | -7% | -2% | -1% | ? | ? | nt
CCOc1ccccc1OCCOCCOc1c(Cl)cccc1Cl | -2.9% | -6% | 1% | -19% | -1% | 7% | 1% | -22%
CCN(c1ccccc1)c1nnc(NC(=O)Nc2ccc(C)cc2)s1 | -2.7% | -11% | nt | nt | nt | ? | 7%[46.1 µM] | -8%
CSC1=NC(C)(C)C=C(/C=C/c2ccc(Cl)cc2)N1 | nt | nt | -1% | -13% | nt | ? | ? | 20µM*
CCN(C(=O)CSc1ncccn1)C1CCS(=O)(=O)C1 (stereo not given) | nt | nt | -5% | -14% | 16% | nt | nt | 0%
Cc1ccc(S(=O)(=O)CCC(=O)OC(C)C(=O)NC2CCCCC2C)cc1 (stereo not given) | nt | nt | 5% | 0% | nt | 6% | 9% | -10%
Cc1cc(Oc2ccc(Cl)cc2)nc(-c2ccccc2O)n1 | -0.1% | 1% | 17% | -7% | -7% | 10% | 4% | -18%
O=C(NC1CCCCC1)C(=S)NCCc1ccccc1 | nt | nt | 0% | 17% | nt | 6%[46.1 µM] | ? | 21%
Cc1cccc(OCc2nnc(SCC(=O)O)n2-c2ccccc2)c1 | nt | nt | 1% | 12% | 17% | nt | nt | -3%
CN(C)CC(C)(C)CNS(=O)(=O)c1ccc(Cl)cc1 | nt | nt | 1% | -3% | nt | 5% | 13% | -4%
CC(C)(C)c1ccc(S(=O)(=O)N2CC(C(=O)O)Oc3ccc(Cl)cc32)cc1 (stereo not given) | nt | nt | 0% | 7% | 8% | ? | 14%[46.1 µM] | 10%
COc1cc(C(=O)OCC#N)ccc1OCc1c(C)noc1C | nt | nt | 0% | 1% | -2% | nt | nt | -17%
CC1(C)Oc2ccc3ccc(=O)oc3c2/C(=C/NNC(N)=O)C1=O | nt | nt | -14% | -5% | 8% | nt | nt | -14%

Compound profiles, as listed above. Screens in order: Cruzain Triton, Cruzain inh noDet, SARS PLpro yeast, RE007 growth inh, NS1 function inh, LASV entry inh, Marburg entry inh, 2A StopGo
Results for CCOc1ccc(OCC)c(NC(=O)CSCCc2ccccn2)c1 = nt, nt, -8%, -15%, nt, 3%[46.1 µM], -22%[46.1 µM], -8%
Results for COC(=O)c1ccc(Nc2ccc3nonc3c2[N+](=O)[O-])cc1 = nt, nt, 2%, 7%, 0%, 2%, -5%, -22%
Results for NS(=O)(=O)c1ccc(CCNC(=O)c2cnc(Cl)c(Cl)c2)cc1 = nt, nt, 5%, -2%, 5%, 5%[46.1 µM], 20%[46.1 µM], -22%

(listing goes on)
SMILES | Cruzain Triton | Cruzain inh noDet | SARS PLpro yeast | RE007 growth inh | NS1 function inh | LASV entry inh | Marburg entry inh | 2A StopGo
CC(C)OCCCNC(=O)c1ccc(CS(=O)(=O)c2cccc(C(F)(F)F)c2)o1 | nt | nt | -2% | -2% | 4% | -11%[46.1 µM] | 0%[46.1 µM] | -12%
O=[N+]([O-])c1ccc(OCCn2cncn2)cc1 | nt | nt | 2% | -19% | 1% | nt | nt | -7%
CCOc1ccc(CNC(=O)c2ccc3c(c2)sc2nc(-c4ccccc4)cn23)cc1 | -1.6% | -5% | nt | nt | nt | 27%[46.1 µM] | nt | 31%[activator]
CCOC(=O)C(CCCOc1ccc(C(C)CC)cc1)C(=O)OCC (stereo not given) | -6.4% | 18% | -9% | -3% | 5% | ? | -20% | -11%
CC(OC(=O)c1cccc(NS(C)(=O)=O)c1)C(=O)Nc1ccc2c(c1)OCO2 (stereo not given) | nt | nt | 4% | 4% | nt | -21% | -26% | ?
O=c1nc(N2CCOCC2)ccn1-c1nc(-c2ccccc2)sc1-c1ccccc1 | nt | nt | 1% | 7% | -3% | nt | nt | 4%
CC1=C(c2ccc(Cl)cc2)S(=O)(=O)N=C1N1CCC(C(=O)NCc2ccccc2F)CC1 | -4.0% | 5% | nt | nt | nt | 3%[46.1 µM] | nt | 0%
CSS(=O)(=O)c1cccc2cccnc12 | nt | nt | -4% | 1% | -56% | -20%[46.1 µM] | -23%[46.1 µM] | -28%
CCc1noc(C)c1C(=O)N1CCN(S(=O)(=O)c2ccc(Br)cc2)CC1 | nt | nt | nt | -7% | nt | -6% | 10% | -1%
CCOc1nc(C)nc(NC(=O)NS(=O)(=O)c2ccccc2Cl)n1 | 3.9% | 1% | 8% | 0% | 1% | nt | -1% | 3%
CC(C)n1c(-c2ccccc2)nc(=S)c2c1CCCC2 | -8.3% | -11% | 9% | nt | 7% | 5% | 21% | nt
O=C(NNC(=O)c1cc(-c2cccc(Br)c2)nc2ccccc12)c1csc(N2CCOCC2)n1 | nt | nt | 9% | -3% | nt | -7%[46.1 µM] | 2% | -19%
C(CCc1nn[nH]n1)CCc1nn[nH]n1 | 2.8% | -10% | -1% | 0% | 15% | 0% | ? | -16%
N#CCCN(C(=S)NC(=O)C1CCCCC1)c1ccccc1F | nt | nt | 10% | -10% | nt | 0%[46.1 µM] | -20%[46.1 µM] | 2%
CCOC(=O)C(=CNc1cc(C)ccn1)C(=O)OCC | -5.1% | 4% | ? | -4% | 5% | ? | -8% | -4%
O=C(NC1CCCC1)c1csc2c1CCCC2 | 4.9% | 0% | -7% | ? | -7% | -24% | 13% | 17%
N#CCc1nn(-c2ccccc2)c(N)c1C#N | 1.2% | -4% | -5% | 3% | 4% | 2% | 10% | -10%
COc1ccccc1-c1nnc(SCC(=O)Nc2ccccc2)o1 | -2.2% | 6% | -5% | 2% | 2% | 10% | 0% | nt
COc1ccc(S(=O)(=O)CCc2nnc(NC(=O)c3ccc(F)cc3)s2)cc1 | nt | nt | -2% | 2% | -8% | 1% | -17% | -18%
COc1cccc(NC(=O)N2CCCC2C(=O)NC2CCCCC2)c1 (stereo not given) | nt | nt | 0% | -5% | 11% | nt | -4%[46.1 µM] | 2%

Source: PubChem BioAssay (National Center for Advancing Translational Sciences (NCATS))
